# From PubChem BioAssay
# Marburg entry inh = qHTS for inhibitors of binding or entry into cells for Marburg Virus; AID 540276, 2011; 300,000 compounds, 1.8% hits; Marburg virus pseudotyped entry inhibition, cell reporter; control for the full effect not named in the record; about a third of the inactives were read at about 46 µM; Potency, µM (doses to about 37.8 µM), for inactives: at the top dose activity change, negative = inhibition, hits mostly inhibitors; active = well fitted inhibition curve with a large enough effect; inconclusive = small, poorly fitted or top-dose-only effect, or effect the other way; inactive = flat fitted curve, though single readings scatter; tested in HEK293 cells; about a fifth of its hits are not listed in these tables; further: on the % scale 0 is the no-effect control and ±100 the full control effect; luciferase read-out
# SARS PLpro yeast = qHTS of Yeast-based Assay for SARS-CoV PLP. S. cerevisiae expressing SARS-CoV PLpro, growth rescue; control for the full effect not named in the record. 330,000 compounds, 0.19% hits. Potency, µM (top dose mostly 32.9 µM), without a hit: at the top dose activity, positive = growth rescue; further: 0% is about no effect; nearly all actives have a fitted effect of over 55% in size; growth read by luminescence after 48 h
# Lassa entry inh = qHTS for Inhibitors of binding or entry into cells for Lassa Virus. AID 540256, 2011. Lassa virus pseudotype entry inhibition, cell reporter; control for the full effect not named in the record. 300,000 compounds, 1.2% hits. Potency, µM (titrated, usually from 37.9 µM), for inactives: at the top dose activity change, negative = inhibition, actives largely listed as inhibitors; active means well fitted inhibition curve with a large enough effect; inconclusive means small, poorly fitted or top-dose-only effect, or effect the other way; inactive means flat fitted curve, though single readings scatter; tested in HEK293 cells; further: on the % scale 0 is the no-effect control and ±100 the full control effect; nearly all actives have a fitted effect of over 50% in size; luciferase read-out
# Cruzain Triton = qHTS Assay for Promiscuous and Specific Inhibitors of Cruzain (with detergent). purified cruzain, Z-FR-AMC fluorescence, 0.01% Triton. 200,000 compounds, 0.43% hits. Cruzipain (Trypanosoma cruzi), P25779. AID 1478, 2009. Potency, µM, for inactives: max response, negative = inhibition, actives largely listed as inhibitors; active means well fitted curve in the direction sought with a large enough effect; inconclusive means small, poorly fitted or top-dose-only effect, or another doubt; inactive means no such curve, though single readings can be large; an effect the other way counts as inactive or inconclusive;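 further: plate controls were neutral wells for no effect and buffer without enzyme for full effect; nearly all actives have a fitted effect of over 40% in size; top concentration of the series not given in the record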
# Target sequence (P25779 123-467 limits assumed): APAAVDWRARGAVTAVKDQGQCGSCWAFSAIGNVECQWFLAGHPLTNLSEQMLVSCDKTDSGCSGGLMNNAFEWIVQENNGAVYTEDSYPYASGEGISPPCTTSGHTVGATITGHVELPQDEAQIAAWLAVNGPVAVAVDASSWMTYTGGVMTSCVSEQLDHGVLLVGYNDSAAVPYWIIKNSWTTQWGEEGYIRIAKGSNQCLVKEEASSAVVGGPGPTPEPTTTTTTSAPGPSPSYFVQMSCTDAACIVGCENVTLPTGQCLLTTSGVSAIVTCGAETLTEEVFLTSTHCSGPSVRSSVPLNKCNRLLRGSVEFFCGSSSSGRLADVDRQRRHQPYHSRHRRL
#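 15 min RT preincubation of 1.5 nM cruzain with compound, then 2 uM Z-FR-AMC added; kinetic AMC fluorescence, 60 s delta. Triton X-100 0.01%, pH 5.5.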
# StopGo reporter = High Throughput Screening for Foot and Mouth Disease Virus Antivirals | 410,000 compounds, 1.2% hits | human cells with a luciferase reporter of 2A StopGo recoding; control for the full effect not named in the record | AID 1159524, 2015 | Potency, µM (series often up to 57.9 µM), inactives show at the top dose signal change, negative = less light; active = well fitted falling curve with a large enough effect; inconclusive = small, poorly fitted or top-dose-only effect; inactive = no such curve, though single readings can be large or run the other way; tested in HEK293T cells; further: on the % scale 0 is the no-effect control and ±100 the full control effect; nearly all actives have a fitted effect of over 45% in size; luciferase light after 4 h
# Cruzain inh noDet = qHTS Assay for Promiscuous and Specific Inhibitors of Cruzain (without detergent); Cruzipain (Trypanosoma cruzi), P25779; purified cruzain, Z-FR-AMC fluorescence, no detergent; Potency, µM, for the others: max response, negative = inhibition, actives largely listed as inhibitors; 200,000 compounds, 2.3% hits; active means well fitted curve in the direction sought with a large enough effect; inconclusive means small, poorly fitted or top-dose-only effect, or another doubt; inactive means no such curve, though single readings can be large; an effect the other way counts as inactive or inconclusive;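 further: plate controls were enzyme without inhibitor for no effect and buffer without enzyme for full effect; nearly all actives have a fitted effect of over 40% in size; top concentration of the series not given in the record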
#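 Detergent-free condition (0.00005% Triton X-100) in acetate buffer pH 5.5 with DTT. 1.5 nM enzyme and compound were pre-mixed 15 min, then 2 uM Z-FR-AMC substrate added; reaction progress from fluorescence change between first and third reads (60 s).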
# NS1 inh = qHTS Assay for Inhibitors of Influenza NS1 Protein Function; AID 2326, 2010; S. cerevisiae slowed by influenza A NS1, growth recovery by OD600; Potency, µM (series often up to 46.1 µM), for inactives: at the top dose activity, positive = more growth; 270,000 compounds, 0.4% hits; further: actives are rising curves; nearly all actives have a fitted effect of over 50% in size
#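 OD600 was taken as the measure of yeast growth restored by compound in an NS1-expressing S. cerevisiae strain. Cells had been washed out of glucose medium and diluted 1:100 into galactose -URA medium, pH 6.0.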
# RE007 growth inh = qHTS Assay for Inhibitors of the HIV-1 protein Vpr; Potency, µM (top dose mostly 92.2 µM), for the others: at the top dose activity change, negative = less growth; 360,000 compounds, 0.21% hits; S. pombe RE007 Vpr strain, BacTiter-Glo ATP luminescence, 24 h; control for the full effect not named in the record; active = well fitted falling curve with a large enough effect; inconclusive = small, poorly fitted or top-dose-only effect; inactive = no such curve, though single readings can be large or run the other way;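 further: on the % scale 0 is the no-effect control and ±100 the full control effect; nearly all actives have a fitted effect of over 50% in size; the assay follows cell death caused by Vpr and the record does not say whether a fall means rescue or toxicity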
#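 Fission yeast strain RE007, carrying one chromosomally integrated HIV-1 vpr copy, was seeded at OD 0.01 in PMG+AL medium with 23 nL pinned compound. After 24 h at 30 °C and 99% humidity, viability was read by BacTiter-Glo luminescence.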
# An asterisk follows results filed as active; ? = inconclusive; nt = not tested or not shown; & = joins results of further samples; [ ] = remark or other dose. Unless noted, the call rests on the fitted dose curve; in most records, active means well fitted rising curve with a large enough effect; inconclusive means small, poorly fitted or top-dose-only effect; inactive means no such curve, though single readings can be large or run the other way. Potency means the concentration at half of the fitted maximal effect.
SMILES,Marburg entry inh,SARS PLpro yeast,Lassa entry inh,Cruzain Triton,StopGo reporter,Cruzain inh noDet,NS1 inh,RE007 growth inh
COc1ccc(C(C(=O)NC(C)(C)C)N(C(=O)CCC(=O)Nc2cc(C)on2)c2ccccc2F)cc1 (stereo not drawn),-28.6%[46.1 µM],-1.2%,nt,nt,11.2%,nt,13.4%,14.2%
CCC(c1nnnn1CCc1ccccc1)N1CCN(c2ccc(OC)cc2)CC1 (stereo not drawn),-21.8%,-1.7%,-24.9%,-9.9%,-13.7%,2.2%,-7.9%,29.8%
Cc1ccccc1NC(C)C(=O)N/N=C/c1ccccc1OCc1cccc(Br)c1 (stereo not drawn),?,-10.1%,?,-0.5%,0.0%,31.6µM*,?,9.6%
CCS(=O)(=O)n1nc(-c2ccccc2)nc1NCc1ccco1,21.0%,6.7%,19.9%,-4.6%,26.8%,-7.9%,-5.4%,19.2%
COc1ccc(N2CCN(S(=O)(=O)c3c(C)n(C)c(=O)n(C)c3=O)CC2)cc1,3.5%,4.1%,6.8%,nt,-10.3%,nt,15.1%,2.7%
COc1ccc(C(=O)Nc2ccc3cn[nH]c3c2)c(OC)c1,8.7%[46.1 µM],-0.3%,8.1%,nt,7.8%,nt,nt,-2.6%
O=C(O)c1[nH]c2ccccc2c1C(c1cc(Cl)cc([N+](=O)[O-])c1O)c1c(C(=O)O)[nH]c2ccccc12,2.7%[46.1 µM],0.9%,-0.4%[46.1 µM],nt,-20.6%,nt,17.3%,-4.9%
CCOC(=O)c1c(NC(=O)C2CC(Cl)=CCC2C(=O)O)sc2c1CC(C)(C)OC2 (stereo not drawn),-19.8%[46.1 µM],0.2%,-12.7%,nt,-3.2%,nt,11.2%,-5.1%
O=[N+]([O-])c1ccc(S(=O)(=O)Nc2nc3ccccc3nc2Nc2ccccc2)cc1,nt,3.1%,-20.8%,nt,-16.3%,nt,nt,-24.8%
CN(C)CCCn1c2c(c(SCC(=O)Nc3cccc4ccccc34)nc1=O)CCCC2,?,1.2%,7.4%,nt,3.3%,nt,nt,-4.0%
CCC1CCCCN1C(=O)c1ccc(OC2CCN(Cc3ccccn3)CC2)cc1 (stereo not drawn),27.7%,-0.6%,0.6%,nt,-12.6%,nt,2.4%,-6.3%
COc1cc(C2c3c(oc4ccccc4c3=O)C(=O)N2Cc2ccc(C)cc2)ccc1O (stereo not drawn),nt,nt,-1.0%[46.1 µM],0.3%,111.3%[activator],-3.4%,nt,nt
COCCn1c(COC)nc2ccccc21,11.4%[46.1 µM],-6.0%,4.6%,4.4%,-3.2%,-3.6%,14.3%,-9.6%
Cc1ccc(NC(=O)CC2(CC(=O)O)CCCC2)cc1,23.5%,0.4%,15.9%,nt,13.8%,nt,1.2%,-13.4%
COC(=O)c1ccc(NC(=O)CN2CCN(c3ccc(Cl)cc3)CC2)cc1,-29.9%&-29.9%,-0.4%,-2.4%,-1.1%&0.8%,-28.1%&-20.0%,-0.3%&-1.7%,8.4%,-2.6%
CCN(CC)S(=O)(=O)c1cccc(C(=O)Nc2ccc3c(c2)OCO3)c1,?,-1.3%,-24.1%[46.1 µM],nt,-8.1%,nt,-3.3%,1.2%
CC(C)(CSc1ccccn1)NS(=O)(=O)c1ccccc1,?,26.9%,2.9%,-5.7%,-16.6%,11.4%,3.2%,-1.4%
Cc1ccc2oc(=O)n(CC(=O)N3CCOCC3)c2c1,nt,-2.1%,nt,nt,-15.7%,nt,4.6%,-8.4%
Cc1ccc(NS(=O)(=O)c2cccc(C(=O)Nc3cc(C)on3)c2)cc1,-19.7%&-19.7%,-2.1%,?,-6.4%,3.7%,-14.1%,4.9%,1.7%
COC(=O)c1ccccc1NC(=O)C(C)n1nc(C)c2c(C)n(-c3ccccc3)nc2c1=O (stereo not drawn),nt,-1.7%,nt,nt,0.0%,nt,20.4%,0.8%
CCCN1CCC(CCOc2ccccc2)(C(=O)OCC)CC1,nt,2.6%,nt,nt,-4.6%,nt,9.4%,3.5%
CC(NCc1ccc(S(N)(=O)=O)cc1)C(=O)N1CCc2ccccc21 (stereo not drawn),nt,2.0%,nt,nt,-4.9%,nt,14.3%,0.6%
O=C(c1ccccc1-c1ncc[nH]1)N1CCc2c([nH]c3ccccc23)C1c1ccccn1 (stereo not drawn),-16.1%[46.1 µM],-0.1%,?,nt,-1.5%,nt,-6.4%,-5.3%
COc1ccc(CCNC(=O)COc2ccc(S(=O)(=O)NCC(C)C)cc2Cl)cc1OC,?,15.5%,?,-3.9%,9.1%,?,-7.5%,0.1%
COc1ccccc1CNC(=O)CN1C(=O)NC(C)(c2ccc(C(C)(C)C)cc2)C1=O (stereo not drawn),?,1.4%,20.5%,nt,-29.2%,nt,6.5%,3.5%

# 2 records drawn at random from those above, as already listed:
SMILES,Marburg entry inh,SARS PLpro yeast,Lassa entry inh,Cruzain Triton,StopGo reporter,Cruzain inh noDet,NS1 inh,RE007 growth inh
CN(C)CCCn1c2c(c(SCC(=O)Nc3cccc4ccccc34)nc1=O)CCCC2,?,1.2%,7.4%,nt,3.3%,nt,nt,-4.0%
COCCn1c(COC)nc2ccccc21,11.4%[46.1 µM],-6.0%,4.6%,4.4%,-3.2%,-3.6%,14.3%,-9.6%

# Two entries from above in another layout:
# Every second line gives: Marburg entry inh	SARS PLpro yeast	Lassa entry inh	Cruzain Triton	StopGo reporter	Cruzain inh noDet	NS1 inh	RE007 growth inh
CCN(CC)S(=O)(=O)c1cccc(C(=O)Nc2ccc3c(c2)OCO3)c1
    ?	-1.3%	-24.1%[46.1 µM]	nt	-8.1%	nt	-3.3%	1.2%
CC(C)(CSc1ccccn1)NS(=O)(=O)c1ccccc1
    ?	26.9%	2.9%	-5.7%	-16.6%	11.4%	3.2%	-1.4%

# (cont.)
SMILES,Marburg entry inh,SARS PLpro yeast,Lassa entry inh,Cruzain Triton,StopGo reporter,Cruzain inh noDet,NS1 inh,RE007 growth inh
CNC(=O)c1ccccc1F,13.9%,2.0%,1.9%,2.2%,7.1%,-2.5%,-3.2%,-0.1%
O=C(NCC1CCCO1)c1nn2c(c1Cl)NC(c1ccc(F)cc1)CC2C(F)(F)F (stereo not drawn),-14.4%,-1.3%,?,-3.5%,-3.7%,22.6%,5.1%,-1.0%
CNC(=O)C1=NCCCc2cc(OC)c(OC)cc21,0.3%,2.9%,32.3%[14.3 µM],2.0%,0.7%,6.0%,3.2%,-5.2%
CC1CCCC(NC(=O)C2CCN(S(=O)(=O)c3cccc4nonc34)CC2)C1C (stereo not drawn),-12.2%[46.1 µM],-0.7%,6.4%,nt,2.9%,nt,7.0%,26.0%
O=C(N/N=C/c1cc(Br)c(O)c(Br)c1)c1cccnc1,3.4%,1.1%,-29.1%,nt,6.6%,nt,-1.6%,12.5%
CN1C(=S)SC(/[N+]([O-])=C/c2cccnc2)C1(C)C (stereo not drawn),5.3%,2.4%,-7.7%,1.3%,-6.9%,-3.9%,?,10.1%
Cc1cc(C)c2ccc(N)nc2c1O,?,-4.8%,?,-2.5%,-14.0%,-17.1%,-58.0%,27.5%
O=c1c2c([N+](=O)[O-])cc([N+](=O)[O-])cc2sn1-c1ccc(Br)cc1,13.5%,-108.2%,4.6%,-6.8%,14.4%,-3.5%,-5.2%,-87.4%
S=c1[nH]nc(Cn2c(-c3ccccn3)nc3ccccc32)n1-c1ccc2c(c1)OCCO2,21.1%[46.1 µM],-1.7%,-11.9%,nt,53.2%[activator],nt,6.3%,-7.9%
CN1CCN(c2ccc(S(=O)(=O)N3CCCCC3)cc2[N+](=O)[O-])CC1,-13.8%,1.8%,-15.7%,nt,-26.3%,nt,nt,-3.0%
Cc1cccc(Cn2cc(S(=O)(=O)c3ccc(Cl)cc3)c(=O)c3cc4c(cc32)OCO4)c1,-6.6%[46.1 µM],nt,-9.0%[46.1 µM],-2.9%,5.0%,?,nt,nt
COc1cc(C(=O)Nc2ccc(N(C)C)cc2)c([N+](=O)[O-])cc1OC,-10.1%[46.1 µM],1.1%,-0.7%,nt,31.0%[activator],nt,8.0%,1.2%
O=C(N/N=C/c1ccc2c(c1)OCO2)c1ccccn1,?,-22.0%,?,-3.6%,nt,-5.5%,-4.1%,-16.2%
CC(C)Oc1ccc2ccccc2c1C=O,16.5%,-5.8%,3.7%,-10.0%,-1.3%,-1.7%,-12.2%,-1.0%
Cc1cc2nc(-c3ccc(SCC(=O)Nc4ccc(S(=O)(=O)NC5CC5)cc4)nc3)[nH]c2cc1C,4.47µM*,-4.5%,?,-6.2%,-2.8%,-7.6%,3.5%,-17.8%
CC1(C)C(=O)N(c2ccccc2Cl)C(=O)c2ccccc21,-23.5%[46.1 µM],-16.0%,20.4%,nt,-8.0%,nt,-72.4%,-1.5%
COc1ccc2oc(C(=O)N3CCN(C(c4ccccc4)c4ccccc4)CC3)c(C)c2c1,?,3.3%,?,nt,-26.3%,nt,nt,8.4%
Nc1ccccc1-c1nnn(CC(=O)N2CCCc3ccccc32)n1,5.0%,-31.8%,-1.2%,-6.9%,nt,1.7%,-23.1%,-5.9%
O=C1CN(C(=O)COC(=O)c2cccc(OCc3ccccc3)c2)c2ccccc2N1,7.2%,11.3%,-14.1%,-8.2%,3.2%,15.7%,-38.1%,1.9%
CC(NCCC1(C(C)C)CCOC(C)(C)C1)c1cccs1 (stereo not drawn),nt,0.3%,nt,nt,19.4%,nt,-2.5%,-10.7%
O=C(CN1CCCN(Cc2ccccc2Cl)S1(=O)=O)NCc1ccccc1,nt,nt,-25.5%[46.1 µM],-3.4%,-0.3%,5.4%,nt,nt
